# Source: PubChem BioAssay (National Center for Advancing Translational Sciences (NCATS))
# FEN1 inh: qHTS Assay for the Inhibitors of Human Flap endonuclease 1 (FEN1); P39748; AID 588795, 2011; Potency, µM (titrated, usually from 114 µM), for the others: top-dose activity change, negative = inhibition, usual class: inhibitors; actives 0.35% (n = 390,000); Recombinant FEN1 flap cleavage, fluorescence, 15 min; further: nearly all actives have a fitted effect of over 65% in size
# Target sequence (P39748 whole entry, looked up): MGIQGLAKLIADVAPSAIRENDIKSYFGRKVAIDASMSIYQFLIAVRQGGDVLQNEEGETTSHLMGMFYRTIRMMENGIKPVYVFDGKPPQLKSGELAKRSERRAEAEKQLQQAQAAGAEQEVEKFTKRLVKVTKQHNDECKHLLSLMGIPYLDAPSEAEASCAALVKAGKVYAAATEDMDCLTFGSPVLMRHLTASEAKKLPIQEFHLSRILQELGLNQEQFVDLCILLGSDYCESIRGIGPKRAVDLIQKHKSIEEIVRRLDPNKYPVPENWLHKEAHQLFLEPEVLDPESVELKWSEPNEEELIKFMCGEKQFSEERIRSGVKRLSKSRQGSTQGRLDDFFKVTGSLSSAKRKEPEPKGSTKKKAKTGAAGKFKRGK
#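 Concentration–response screening of FEN1 (10 nM): 15 min compound preincubation at room temperature, reaction started with 50 nM substrate and read at 0 and 15 min. Corrected, normalized data were fitted by a four-parameter Hill equation.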
# N370S GC: qHTS Assay for Inhibitors and Activators of N370S glucocerebrosidase as a Potential Chaperone Treatment of Gaucher Disease; Potency, µM (highest dose often 59.4 µM), inactives show at the top dose activity change, negative = inhibition, actives largely listed as inhibitors; N370S GC spleen homogenate, 4MU-glucoside fluorescence; actives 0.092% (n = 330,000); Lysosomal acid glucosylceramidase (Homo sapiens), P04062;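 further: 0% = full enzyme activity and -100% = no enzyme basal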
# The depositor's hits bear a star; ? = inconclusive; nt = no result given; & = joins results of further samples. The call rests on the fitted dose curve; in most records, active means well fitted curve in the direction sought with a large enough effect; inconclusive means small, poorly fitted or top-dose-only effect, or another doubt; inactive means no such curve, though single readings can be large; an effect the other way counts as inactive or inconclusive. Unless noted, on the % scale 0 is the no-effect control and ±100 the full control effect; potency means the concentration at half of the fitted maximal effect. Only part of the results is shown; most or all hits stand in other tables.
SMILES,FEN1 inh,N370S GC
CCOC(=O)c1ccc(S(=O)(=O)Nc2nc3cc(S(=O)(=O)NC4=NCCCCC4)ccc3s2)cc1,-8.1%,-26.9%
CCOC(=O)c1cc(NC(=O)SCC(=O)O)c(C)nc1C,4.7%,1.1%
Cc1ccc(-c2nnc(Nc3ccc4c(c3)OCO4)c3ccccc23)cc1S(=O)(=O)NC(C)C,-2.5%,-13.4%
CCCCOc1ccc(C(=O)Nc2ccc(N3CCN(C)CC3)cc2)cc1,1.3%,?
O=P1(O)C=C(c2ccccc2)OC(c2ccccc2)=C1,-12.3%,5.3%
Cc1ccccc1NC(=O)C1CCCN(S(=O)(=O)c2ccc(-n3cnnn3)cc2)C1 (configuration not stated),13.1%,-18.7%
O=C(N=C1SCC(=O)N1c1ccccc1Cl)c1ccco1,-1.0%,3.5%
CC(C)c1ccc(S(=O)(=O)N2CCN(C(=O)c3cccc(F)c3)CC2)cc1,13.2%,-10.7%
O=C(CSc1nnc(COc2ccc(Cl)cc2)o1)Nc1ccccc1,-12.1%,nt
Cc1oc(-c2ccccc2F)nc1CS(=O)CC(=O)NCc1ccccc1 (configuration not stated),-8.8%,0.5%
S=C(Nc1ccc(Oc2ccccc2)cc1)N(CCCN1CCOCC1)Cc1ccccn1,4.2%,10µM*
COCc1cc(CN(C)C(=O)c2oc3c(F)cccc3c2C)[nH]n1,3.4%,-6.2%
Cc1ccc(S(=O)(=O)/N=C(\c2ccccc2)N(C)S(=O)(=O)c2ccc(C)cc2)cc1,-3.8%,-1.0%
FC(F)(F)c1nc(Sc2ncccc2C(F)(F)F)n[nH]1,-5.8%,6.5%
CC(C)c1ccc(NC(=O)c2cnn(-c3ccccc3)c2NC(=O)c2ccco2)cc1,-8.3%,-4.5%
O=C(N/N=C/c1cccc([N+](=O)[O-])c1)c1cc(-c2ccccc2)nc2ccccc12,-16.0%,4.9%
Cc1noc(C)c1C(=O)NC(C)c1ccc(Cl)cc1Cl (configuration not stated),-1.6%,-4.6%
CCCN1C(=O)c2ccc(C(=O)Nc3cc(C)on3)cc2C1=O,-8.4%,1.3%
COC(=O)Nc1nc(-c2ccc(F)cc2)c(C)s1,1.9%,0.9%
Cc1ccc(C)c(NC(=O)COC(=O)c2cccc3c2C(=O)c2ccccc2C3=O)c1,2.2%,-16.2%
C[C@@H](NC(=O)Cn1cnc2c(NCc3ccccc3)ncnc21)c1cccc2ccccc12,13.7%,nt
NC(=O)c1cccn(Cc2ccc(C(F)(F)F)cc2)c1=O,0.4%,-2.6%
O=S(=O)([N-]c1nc2ccccc2nc1-[n+]1ccccc1)c1ccc(Cl)cc1,-0.1%,11.7%
Cc1cc(OCc2cc(C(=O)N3CCN(C)C(=O)[C@@H]3C)no2)cc(C)c1Cl,-4.8%,-6.2%
Cc1ccc2c(c1)N(S(=O)(=O)c1ccc(F)cc1)C(C(C)(C)C)CO2 (configuration not stated),-19.4%,3.1%
COc1ccc(C(=O)NCC23C=CC(O2)C2C(=O)N(Cc4ccccc4)C(=O)C23)cc1 (configuration not stated),4.6%,3.4%
CC(=O)COc1cc(C)cc2oc(=O)c(C)c(C)c12,-7.7%,6.7%
C=CCc1ccc(OCCCCNC2CCCC2)c(OC)c1,-1.1%,-3.5%
Cc1ccc(CCNC(=O)c2ccc(CNS(=O)(=O)c3ccc(C)cc3)cc2)cc1,0.0%,nt
CN(CCc1nc2ccccc2[nH]1)Cc1nc(CC2CC2)no1,-8.2%,0.3%
CN(CC(=O)NCC(c1ccccc1)N1CCCC1)S(=O)(=O)c1ccc(Cl)cc1 (configuration not stated),-2.9%,nt
O=C(CSc1nnc(CNC(=O)c2cccs2)o1)Nc1cccc(C(F)(F)F)c1,8.0%,5.6%
O=C1C=C(NCc2ccco2)CCC1,-11.1%,3.4%
CCCc1cc(=O)n2nc(N3CCC(C(=O)NCc4ccc(C)o4)CC3)sc2n1,9.3%,-6.2%
Cn1c(=O)c([N+](=O)[O-])c(Oc2ccccc2)c2ccccc21,?,10.3%
COc1ccc(-c2nc(CS(=O)CC(=O)NCCc3ccc(C)cc3)c(C)o2)cc1OC (configuration not stated),-8.9%,4.9%
O=S(=O)(NNc1nccc(C(F)(F)F)n1)c1cccc(Cl)c1Cl,11.9%,5.1%
CCOCCc1nnc(NC(=O)C(CC)c2ccccc2)s1 (configuration not stated),8.2%,nt
CCOC(=O)c1ccccc1OCc1cc(/C=N/n2cncn2)ccc1OC,-0.9%,10.8%
COC(=O)c1cc(C)nc2c1c(=O)nc(SCc1c(C)cc(C)cc1C)n2C1CC1,-6.8%,nt
CC(C)N(C(=O)c1ccc2nc(-c3ccccc3)c(-c3ccccc3)nc2c1)C(C)C,-23.9%,-0.5%
Cc1cccc(CNC(=O)Cn2ccc3cc(S(=O)(=O)N4CCCC4)ccc32)c1,18.0%&22.5%,2.9%
CCC(C)c1ccccc1NC(=O)CN(C)CC(=O)Nc1ccccc1SC (configuration not stated),11.1%,-8.3%
CCN1CCN(CCCNc2ncnc3nc[nH]c23)CC1,0.0%,0.9%
CC1CCCC(C)N1NC(=O)c1ccc(Cl)c(S(N)(=O)=O)c1 (configuration not stated),1.4%,7.7%&10.6%
CCN(CC)c1ccc(NC(=O)c2cc(Cl)ccc2OC)cc1,6.5%,1.5%
COC(=O)CC1C(C)(C)C(=O)C2CC3=C(CC[C@]4(C)C3=CC(=O)OC4c3ccoc3)[C@@]1(C)C2=O (some centres not stated),nt,5.3%
Cc1cc(C(=O)N2CCC(C(N)=O)CC2)c(C)o1,13.2%,nt
COc1ccc(C(=O)COC(=O)Cc2n[nH]c(=O)c3ccccc23)c(OC)c1,1.0%,-4.9%
Cn1cc(S(=O)(=O)c2ccc(Cl)cc2)c(=O)c2cc(F)c(N3CCOCC3)cc21,-0.3%,nt
O=C1CN2C(=Nc3ccc(Cl)cc3C2c2ccccc2)CN1 (configuration not stated),6.8%,?
CN(Cc1ccccn1)C(=O)C1CCC(=O)N(Cc2cccc(F)c2)C1 (configuration not stated),-1.4%,-6.1%
CCCCCCCC/C=C\CCCCCCCC(=O)OC[C@@H](O)COP(=O)(O)O,nt,-1.2%&10.4%
CCOCCn1c(SC(C)C(C)=O)nc2c1c(=O)[nH]c(=O)n2C (configuration not stated),-7.2%,2.2%
O=C(COC(=O)CCCc1nc2ccccc2s1)Nc1ncc(Cl)cc1Cl,-2.4%,-2.5%
O=c1c2ccccc2nnn1CSc1nc2ccccc2[nH]1,0.2%,8.3%
CC(C)Cn1c(=O)c(C(=O)NCc2ccccn2)c(O)c2ccccc21,-11.1%,?
Cc1cccc(CNC(=O)CCc2nnc(C3CCCCC3)o2)c1,-16.4%,0.6%
Cn1c(N2C(=O)CC(Cc3ccccc3)C2=O)nc2ccccc21 (configuration not stated),-1.3%,8.1%
CCC(C)c1ccc(C(C)NC(=S)NCc2ccc(F)cc2)cc1 (configuration not stated),-1.2%,-3.2%

# For reference, some entries already given.
SMILES,FEN1 inh,N370S GC
Cc1cccc(CNC(=O)CCc2nnc(C3CCCCC3)o2)c1,-16.4%,0.6%
Cn1c(N2C(=O)CC(Cc3ccccc3)C2=O)nc2ccccc21 (configuration not stated),-1.3%,8.1%
CCC(C)c1ccc(C(C)NC(=S)NCc2ccc(F)cc2)cc1 (configuration not stated),-1.2%,-3.2%

# One compound at a time, from the list above. Screens in order: FEN1 inh, N370S GC
# Entry for O=c1c2ccccc2nnn1CSc1nc2ccccc2[nH]1 = 0.2%, 8.3%
# Entry for Cc1cccc(CNC(=O)Cn2ccc3cc(S(=O)(=O)N4CCCC4)ccc32)c1 = 18.0%&22.5%, 2.9%
# Entry for O=C1CN2C(=Nc3ccc(Cl)cc3C2c2ccccc2)CN1 (configuration not stated) = 6.8%, ?

# Following part.
SMILES,FEN1 inh,N370S GC
COc1ccc(C2(CNC(=O)C(c3ccccc3)c3ccccc3)CCOCC2)cc1OC,4.3%,1.0%
O=C(NC1CCCCC1)c1ccc2c(c1)OCO2,-0.1%,-0.4%
COc1ccc(CC(=O)Nc2ccc(-c3noc(COc4ccccc4C)n3)cc2)cc1,-14.2%,-3.5%
O=C(NC(=S)Nc1ccccc1N1CCOCC1)c1ccc([N+](=O)[O-])cc1,10.9%,-1.0%
O=C(NCc1cccc2[nH]ccc12)C1CCC(=O)N(CCc2ccc(Cl)cc2)C1 (configuration not stated),4.8%,-8.4%
CC1CCCCN1C(=S)NCCc1ccccc1 (configuration not stated),-6.1%,-10.0%
CCCN(CCC)Cc1c(C(=O)N/N=C/c2ccco2)nnn1-c1nonc1N,11.1%,-1.9%
COc1ccc(OC)c(NC(=O)CCCN2C(=O)C3C4C=CC(C4)C3C2=O)c1 (configuration not stated),8.0%,-9.5%
COc1ccc(S(=O)(=O)NC2(C(F)(F)F)N=C(c3ccccc3)NC2=O)cc1 (configuration not stated),20.2%,-19.3%
CCc1ccc(CNC(=O)c2cc3c(C)nc4ccccc4c3o2)cc1,-18.9%,-0.9%
O=C(Cn1c(=O)oc2cc(S(=O)(=O)N3CCCC3)ccc21)Nc1ccc(F)cc1F,-3.3%,nt
O=C1C(=O)c2ccccc2C(O)=C1c1cccc([N+](=O)[O-])c1,-18.1%,-1.9%
CC(C)[C@H](NC(=O)c1ccccc1Cl)C(=O)OCC(=O)NC(=O)NCc1ccco1,-20.5%,nt
O=C(Nc1ccc(Oc2ccc3c(c2)C(=O)N(c2ccc(O)cc2)C3=O)cc1)c1cccs1,-4.3%,1.6%
FC(F)(F)Oc1ccc2c(c1)NC(c1ccncc1)=NC(c1cccs1)=N2,-20.9%,nt
CCc1ccc(-c2cc(C)no2)cc1S(=O)(=O)N1CCCN(Cc2ccc(F)cc2)C1,-6.5%,-14.6%
CC(=O)Nc1sc(/C(C#N)=C\c2cccc(Cl)c2)nc1-c1ccc(C)cc1,-8.4%,-18.2%
COc1ccc(CCNC(=O)CN2C(=O)NC3(CCOc4ccccc43)C2=O)cc1 (configuration not stated),-8.6%,?
COC(=O)Cc1ccc(NC(=S)N2CCCC(C)C2)cc1 (configuration not stated),-1.0%,7.1%
CCN1C(=O)[C@H]2[C@@H](c3ccc(-c4ccccc4)cc3)N[C@@](C)(C(=O)OC)[C@H]2C1=O,15.7%,-4.9%
O=C(CCN1C(=O)/C(=C/c2ccccc2F)SC1=S)NCCc1ccc(O)cc1,-16.3%,-13.1%
COC(=O)[C@@H]1OC(=O)[C@H]2O[C@@]23[C@@]1(C)CC[C@@H]1[C@@]2(C)C=CC(=O)OC(C)(C)[C@@H]2CC(=O)[C@]13C,-2.0%,nt
CC1(C(=O)NCCN2CCOCC2)C=CC2(CCCCC2)N1C(=O)c1ccccc1 (configuration not stated),-4.1%,-9.5%&-27.7%
COC(=O)c1cccc(NC(=O)C2COc3ccccc3O2)c1C (configuration not stated),-2.4%,-0.1%
O=C(NCCc1ccccc1)C1CCCN(S(=O)(=O)c2cccs2)C1 (configuration not stated),-9.4%,1.7%
CCc1ccccc1N1CC(C(=O)O)CC1=O (configuration not stated),2.0%,3.4%
Cn1c(=O)c2c(-c3ccc(C(C)(C)C)cc3)n(N3CCOCC3)cc2n(C)c1=O,-5.9%,-3.1%
CCOC(=O)c1c(C)[nH]c(C(=O)COC(=O)CNC(=O)c2ccc(Cl)cc2Cl)c1C,-2.2%,-0.2%
COc1ccc(C(=O)Cn2c(=O)n3nc(CCn4nc(C)cc4C)nc3c3cc(OC)c(OC)cc32)cc1,-6.0%,nt
O=C(NCCc1nnc2ccc(N3CCCCCC3)nn12)c1ccccc1,-1.1%,-4.3%
O=C(NCC(c1cccs1)N1CCOCC1)c1ccc(Br)o1 (configuration not stated),19.2%,-0.7%
COc1ccc(C(=O)OCc2cc3cccc(C)c3[nH]c2=O)cc1,0.5%,15.8%
COc1cc(S(=O)(=O)N2CCOCC2)ccc1NC(=O)COC(=O)C12CC3CC(CC(C3)C1)C2,-3.3%,6.1%
COC(=O)c1ccc2c(=O)n(CCCCCC(=O)N3CCN(c4cc(C)ccc4C)CC3)c(=O)[nH]c2c1,-2.3%,nt
O=C(NC1=NCCS1)c1csc2ccccc12,-20.4%,1.4%
CCC(C)NC(=O)c1cn(CC)c2ccc(S(=O)(=O)N3CCCCC3)cc2c1=O (configuration not stated),-0.4%&4.6%,-3.4%
O=C(CCN1CCCCCC1)Nc1ccc(F)cc1,5.6%,13.3%
C/C(CCc1ccco1)=N\NC(=O)CNc1cccc2ccccc12,6.7%,-11.0%
CCC(C(=O)c1ccc(O)cc1)c1ccccc1 (configuration not stated),-4.0%,11.5%
Cc1nn(C(=O)c2cc3sccc3[nH]2)c(C)c1C,3.6%,2.7%
COc1ccc(-c2csc(N(CCCN(C)C)C(=O)c3cccs3)n2)cc1,-19.3%,-7.9%
CCn1ncc(CN2CCN(Cc3ccc(OC)c(C)c3C)C(CCO)C2)c1C (configuration not stated),-4.7%,3.0%
CN(C)S(=O)(=O)c1ccc2c(c1)N(CC(=O)Nc1ccc(F)cc1)C(=O)CS2,0.6%,nt
CCN(CC)CCOC(=O)C1(c2ccccc2)CCOCC1,-4.5%,5.3%
COc1ccc2c(c1)[nH]c1c(=O)n(Cc3ccco3)cnc12,4.5%,1.9%
O=C(CSCc1ccc(Cl)cc1)Nc1ccc2c(c1)OCO2,4.0%,9.5%
Nc1cc(-c2ccccc2)nn1S(=O)(=O)c1ccc(Br)cc1,?,29.3%
O=C(Nc1cccc(O)c1)c1cccc(C(=O)Nc2cccc(O)c2)c1,-13.6%,-7.0%
